# Source: PubChem
# CDC25B-CDK2 inh = human CDC25B-CDK2/CyclinA binding inhibition | z-score (no concentration beside the values) | actives 0.72% (n = 94,000) | AID 1259370 | HTRF CDC25B-CDK2/CyclinA binding, anti-His/anti-Flag; active compounds read high | P30305+P24941;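 note: score is relative to mean and SD of negative controls; strong numbers were not always called active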
# HIV TAR-Tat = HIV-1 TAR-Tat binding disruption; z-score (concentration not given with the values); AID 1259389; actives 0.6% (n = 100,000); HIV-1 TAR RNA, Tat peptide displacement FRET; active compounds read high;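 note: score is relative to mean and SD of negative controls; some compounds called inactive have numbers as strong as hits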
# The depositor's hits bear a star; x = not tested or not shown.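 Rule for the calls: active = z-score from 3 up in half or more of its runs; inactive = the rest.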
SMILES,CDC25B-CDK2 inh,HIV TAR-Tat
COc1ccc(CSc2nnc3nc(C)cc(C)n23)cc1,-0.16,x
Clc1cccc(-c2nc(NCc3cccnc3)nc3c2COc2ccccc2-3)c1,-1.6,x
CN(C)c1ccc(CNc2nc3ccccc3n2C)cc1,-1.4,-0.61
Cn1c(CN2CCCC2)nc2cc(NS(=O)(=O)c3ccccc3)ccc21,1.1,0.09
Cc1ccc(-c2nc3nc(C)cc(N4CCN(C)CC4)n3n2)cc1,-1.1,1.6
Cc1nn(S(=O)(=O)c2ccc(Br)cc2)c(C)c1S(=O)(=O)N1CCCC(C)C1 (configuration not stated),x,0.86
CC(C)CNC(=O)NCc1ccc2ncccc2c1,x,-0.82
O=C(Nc1nc(-c2ccncc2)cs1)c1ccc(-c2nc3ccccc3s2)s1,x,0.45
CSC1=C(C#N)C(c2ccc(C(C)C)cc2)CC(=O)N1 (configuration not stated),-0.6,-0.45
CC(C)CCNC(=O)N1Cc2cccn2-c2ccccc21,x,1.8
Cc1nc(N2CCCC2)cc(N2CCN(C(=O)Nc3ccccc3)CC2)n1,-0.11,0.7
O=C(COc1ccccc1)Nc1cccc(OCc2cc(=O)n3nc(C4CCCCC4)sc3n2)c1,-1.1,0.64

# Continued, starting with the last 6 of the part before.
SMILES,CDC25B-CDK2 inh,HIV TAR-Tat
CC(C)CNC(=O)NCc1ccc2ncccc2c1,x,-0.82
O=C(Nc1nc(-c2ccncc2)cs1)c1ccc(-c2nc3ccccc3s2)s1,x,0.45
CSC1=C(C#N)C(c2ccc(C(C)C)cc2)CC(=O)N1 (configuration not stated),-0.6,-0.45
CC(C)CCNC(=O)N1Cc2cccn2-c2ccccc21,x,1.8
Cc1nc(N2CCCC2)cc(N2CCN(C(=O)Nc3ccccc3)CC2)n1,-0.11,0.7
O=C(COc1ccccc1)Nc1cccc(OCc2cc(=O)n3nc(C4CCCCC4)sc3n2)c1,-1.1,0.64
Cc1nc(N2CCCC2)c2c(C(=O)N3CCN(c4ccccc4)CC3)c(C)oc2n1,x,0.69
O=S(=O)(c1ccc(-c2cnc(C3CC3)o2)s1)N1CCc2ccccc2C1,x,1.5
O=C1CCCc2cc(S(=O)(=O)N3CCCC(C(=O)NCCC4=CCCCC4)C3)ccc2N1 (configuration not stated),x,0.3
CC1=C(C(=O)OC2CCCCC2)C(c2ccccc2C)C2=C(CCCC2=O)N1 (configuration not stated),-1.5,0.45
CCC(C)NS(=O)(=O)c1cc2c(cc1Cl)N(C(C)=O)CCO2 (configuration not stated),x,-0.17
CN(C)CCCN1C(=O)C(O)=C(C(=O)c2ccco2)C1c1ccc(Cl)cc1 (configuration not stated),-2,-0.34
CCCCNC(=O)C1CCCNC1=O (configuration not stated),-0.47,-0.26
CCc1ccc2occ(CC(=O)Nc3sc4c(c3C(=O)NCc3cccnc3)CCC4)c2c1,-1.3,0.26
Cc1cc(C)c2c(n1)nn1c(C)c(CCC(=O)NCc3ccco3)c(C)nc21,0.43,-0.18
CCn1c(C(=O)NCCCN2CCCCC2C)cc2sc(Cl)cc21 (configuration not stated),-0.7,x
CCCC1c2cccn2CCN1C(=O)NC1CCCCC1 (configuration not stated),x,0.23
CCc1cccc(C)c1NS(=O)(=O)c1cc(-c2cnc(C)o2)ccc1C,x,1.3
Cc1nc(-c2csc(S(=O)(=O)NCc3ccccc3)c2)no1,x,0.29
CC(=O)Nc1ccc(/C=N/NC(=O)N/N=C/c2ccc(NC(C)=O)cc2)cc1,-1.6,x
CCOCCCNC(=O)CCc1nnc2ccc(N3CCN(C)CC3)nn12,x,0.42
CCOC(=O)c1sc2nc(SCc3ccccc3)nc(-c3ccccc3)c2c1N,-1.2,x
CCN1C(=O)c2cc3ccccc3n2CC1(C)C(=O)NC1CCCC1 (configuration not stated),x,0.89
CN(C(=O)CCc1nnc2ccc(NCc3ccco3)nn12)c1ccc(F)cc1,x,1.2
COc1ccc(-c2nc3c(c(=O)[nH]2)Cc2cc(F)ccc2O3)c(OC)c1,-2,1.6
CC(C)c1ccc(-c2nc(N3CCOCC3)nc3n[nH]c(N)c23)cc1,-0.31,x
CCOC(=O)c1c(NC(=O)c2cc(=O)c3cc(C)c(C)cc3o2)sc(C)c1C,-1.7,2
O=C(CSc1c(F)c(F)c(C(=O)O)c(F)c1F)c1cccc([N+](=O)[O-])c1,0.82,x
Cc1oc2ncn(CC(C)C)c(=O)c2c1NC(=O)NC1CCCCC1,0.07,0.35
CC(C)(C)N1CSC(=S)N(Cc2ccccc2)C1,-1.9,0.95
CC1CCN(c2c(NCC3CCC(C(=O)NC4CCCCCCC4)CC3)c(=O)c2=O)CC1 (configuration not stated),-1.4,x
NC(=O)C1CCN(S(=O)(=O)c2cc(Cl)sc2Cl)CC1,-1.8,x
CC1=C(C(=O)OCC(C)C)C(c2ccc(F)cc2)C2=C(CC(c3ccccc3)CC2=O)N1 (configuration not stated),0.12,-1.3
O=c1c2sc3ccccc3c2[nH]c(=S)n1CC1CCCO1 (configuration not stated),-1.9,x
Nc1nc2n(n1)C(c1cccc(Br)c1)CC(c1ccc(F)cc1)N2 (configuration not stated),-0.36,0.43
OC(COCc1ccccc1)CN1CCOCC1 (configuration not stated),-2.2,x
CN([C@H]1CCN2CCc3ccccc3C2C1)S(C)(=O)=O (some centres not stated),-0.44,x
CCCc1c(C)nc2ncnn2c1Nc1cc(C)ccc1OC,-0.81,2.2
COC(=O)c1cc(S(=O)(=O)NCc2ccc(Br)cc2)c[nH]1,x,0.3
CC(=O)N1CC(C)Oc2ccc(S(=O)(=O)Nc3ccc(Cl)cn3)cc21 (configuration not stated),x,0.16
Cc1cc(F)ccc1S(=O)(=O)Nc1ccc2c(c1)N(S(=O)(=O)c1ccc(F)cc1)CCC2,x,1
COc1ccc(NS(=O)(=O)c2ccc3c(c2)NC(=O)CC(=O)N3)cc1,-0.88,x
O=C(CN1C(=O)c2cccnc2Sc2ccccc21)N1CCN(c2cccc(Cl)c2)CC1,x,0.77
Fc1ccc(-c2nnc(-c3ccccc3)o2)cc1,-0.23,0.66
O=C(c1ccco1)N1CCN(C(=O)c2cccn2-c2nnc(N3CCCC3)s2)CC1,x,1.1
CCOc1ccc(N2C(=O)C3C(c4ccccc4C)OC4(C(=O)c5ccccc5C4=O)C3C2=O)cc1 (configuration not stated),0.86,-0.47
Cc1ccc(Cl)cc1NS(=O)(=O)c1ccc2c(c1)C(C)(C)C(=O)N2C,x,1.8
O=C(CC1CCCC1)Nc1nc2c(s1)CN(S(=O)(=O)c1ccccc1)CC2,x,2.2
COc1ccc(-c2noc(-c3ccc(C)cc3)n2)cc1,x,-1.8
O=C(C1CCN(S(=O)(=O)c2ccc(Cl)cc2)CC1)N1CCOCC1,-0.55,0.39
CCC(O)c1nc2ccccc2n1CCOc1ccccc1OC (configuration not stated),-0.68,1.2
CCCCSc1nc2c(c(=O)[nH]1)C(c1ccc(C(=O)OC)cc1)C(C(=O)OCC)=C(C)N2 (configuration not stated),0.8,-0.17
Cc1ccccc1-c1nnc(Cc2ccc(F)cc2)o1,-1.3,2.5
O=C(Cc1c(C(=O)O)[nH]c2ccc(Cl)cc12)NCc1cccs1,-0.64,x
O=c1c(S(=O)(=O)c2ccccc2)cn(Cc2ccc(Cl)cc2)c2ccc(F)cc12,-0.78,0.22
CN(C)c1ncc(C(=O)NCc2cccs2)cn1,x,2.6
CCOc1nc(-c2ccccc2)nc(C)c1Cc1ccccc1,-0.93,1.9
CN1CCN(c2ccccc2/C=N/NC(=O)c2cccnc2)CC1,-1.5,x
O=C(CC1(O)C(=O)N(Cc2ccccc2Cl)c2ccccc21)c1ccc(F)cc1 (configuration not stated),-0.46,x
NNC(=O)C1CCN(Cc2cccnc2)CC1,-0.6,x
CCc1cc2c3c([nH]c2cc1S(=O)(=O)NCCc1sccc1C)CCCC3=O,x,1.6
Clc1ccc(Cc2nn3cnnc3s2)cc1,-0.61,0.91
CCc1nn2c(=O)cc(CSc3ccccc3NS(=O)(=O)c3ccc(Cl)cc3)nc2s1,x,-0.46
COc1ccc(OC)c(Nc2ncnc3onc(C)c23)c1,x,0.22
CCc1nc(-c2csc(S(=O)(=O)N3CCN(c4ccc(F)cc4)CC3)c2)no1,x,0.77
Cc1ccc(CN(C(=O)c2oc3ccc(F)cc3c2C)c2ccccn2)o1,0.95,0.62

# The results go on.
SMILES,CDC25B-CDK2 inh,HIV TAR-Tat
O=C(CCc1ccccc1)Nc1nn2c(-c3ccccc3)nnc2s1,-0.34,1.1
CCN(Cc1nc(-c2ccccc2)no1)S(=O)(=O)c1ccc(Br)cc1,0.4,1.6
Cc1cc(Nc2ccc(Cl)c(C(=O)O)c2)n2ncnc2n1,0.86,1.3
O=C(Nc1ccccc1)c1ccnc(Nc2ccc3c(c2)OCCO3)c1,x,1.5
N#Cc1cnc(-c2cnccn2)nc1N,-1.3,x
Cc1cc2oc3c(c(=O)c2cc1C)C(c1ccc(F)cc1)N(CCCN1CCOCC1)C3=O (configuration not stated),-1.4,0.88
CCCOC(=O)C1=C(C)NC2=C(C(=O)CC(C)(C)C2)C1c1ccc(N(C)C)cc1 (configuration not stated),-1.5,1.9
CCC(C)NC(=O)c1ccc(CN2C(=O)C(C)=C(c3ccc(C)cc3)S2(=O)=O)cc1 (configuration not stated),x,1.9
CC(C)CCn1c(=O)c2ccccc2n2c(CCC(=O)NCCc3c[nH]c4ccccc34)nnc12,0.27,0.65
O=c1cc(CSCc2ccco2)nc2sc3c(n12)CCCC3,0.98,-0.22
O=C(NCC(c1ccco1)N1CCCC1)c1cc(=O)c2ccccc2o1 (configuration not stated),-1.5,-0.14
CCCN(CCC)C(=O)Nc1cn(CC(C)C)c(=O)c2ccccc12,x,1.9
CCCCOc1cc(C(=O)O)ccc1OC,0.8,x
N#Cc1nc(-c2ccc(S(=O)(=O)N3CCc4ccccc4C3)cc2)oc1N1CCOCC1,-1.2,-1.2
CCC(CO)NCC(O)Cn1cnc2c1c(=O)n(C)c(=O)n2C (configuration not stated),-1.2,3.4
Cn1c(=O)c2c(SCC(=O)OCc3ccccc3)nc(-c3ccc(F)cc3)nc2n(C)c1=O,-0.46,x
Cc1oc2cc3c(C#N)c(C)oc3cc2c1C#N,-1.9,x
COc1ccc(CN2CN(CCN3CCOCC3)CSC2=S)cc1,0.52,-0.2
O=C(NCCCN1CCOCC1)c1noc2c1CCc1sccc1-2,x,0.66
CSc1ncc(C(=O)Nc2ccc(Br)c(C)c2)c(C)n1,x,-1.7
N[C@H](C(=O)O)[C@H](O)C(=O)O,-1.9,x
Cc1cc(C)cc(N2CC(c3nc4ccccc4n3CCCN(C)C)CC2=O)c1 (configuration not stated),0.03,-1.2
CC(C)(C)c1ccc(C(=O)Nc2noc3ccccc23)cc1,-1.6,-1.4
CN(C1CCCCC1)C1CCN(S(=O)(=O)c2ccc3c(c2)CCCC(=O)N3)CC1,x,0.16
Cc1cccn2c(=O)cc(COc3ccc(NC(=O)CC(C)C)cc3)nc12,x,-1.3
CCOC(=O)C1=C(C)Nc2nc(SCC(C)C)[nH]c(=O)c2C1c1cccs1 (configuration not stated),0.32,0.96
CC1CCC(NC(=O)C(NS(=O)(=O)c2ccc3c(c2)CCC(=O)N3)c2ccccc2)CC1 (configuration not stated),-0.33,x
O=C(NCCN1CCCC1)C1CCN(c2nnc(N3CCCC3=O)s2)CC1,-2.1,-0.1
C/C(=C\CO)CC[C@H](C)CCC[C@H](C)CCCC(C)C,x,-0.08
Cn1ncc2c(Nc3ccc(F)cc3)nc(N3CCN(c4ccccc4)CC3)nc21,x,-0.72
CC(=O)N1CCSC1C(=O)NNC(=O)c1ccc2c(c1)OCO2 (configuration not stated),-2.4,x
O=C(O)c1nccnc1C(=O)Nc1ccc(F)cc1,-1.3,0.14
Cc1cnc(NC(=O)C(=O)c2cc(C)n(-c3ccccc3F)c2C)s1,-1.6,0.59
O=C(Nc1ccc(S(=O)(=O)Nc2nccs2)cc1)c1cc2ccccc2c(=O)o1,-1.1,0.58
COc1ccc(Oc2coc3cc(OCC(=O)OCCC(C)C)ccc3c2=O)cc1,2.2,x
N#CC1=C(N)Oc2n[nH]c(-c3ccc4c(c3)OCO4)c2C1c1cccs1 (configuration not stated),-0.85,x
c1ccc(-c2n[nH]c3c2cnc2cc4c(cc23)OCCO4)cc1,2,2.6
CC(=O)Nc1ccc(Br)cc1C(=O)C(=O)Nc1ccc2c(c1)OCO2,-1.9,x
O=c1cc2nn[nH]n2nc1-c1ccccc1,-1.4,x
CN(CCOC(=O)c1cc2ccccc2o1)C(C)(C)C,-0.47,2.7
C=Cc1ccc(Cn2cc(S(=O)(=O)c3ccc(C)cc3)c(=O)c3ccc(C)nc32)cc1,x,-2.7
COC(=O)c1cnn2c(C(F)(F)F)cc(-c3ccc(C)cc3)nc12,-1.5,-0.35
Cc1nn(-c2ccccc2)c2c1N(C(=O)CCC(=O)Nc1ccccc1Br)CCS2,-1.1,1.2
O=C(O)C(=O)NCC1COc2ccccc2O1 (configuration not stated),-1.3,-0.33
Cc1cc(=O)n(CC(=O)O)c2ccccc12,x,1.3
O=C(NCc1ccco1)c1cc2ccccc2oc1=O,-1.1,x
C=CCSc1nc2c(c(=O)[nH]1)C(c1ccc(OC)c(OC)c1)C(C(=O)OC)=C(C)N2 (configuration not stated),-1.6,1.8

# Complete entries, quoted from the list. Values in the order: CDC25B-CDK2 inh, HIV TAR-Tat
# `CCOC(=O)c1sc2nc(SCc3ccccc3)nc(-c3ccccc3)c2c1N` is entered as -1.2, x
# `CCc1cc2c3c([nH]c2cc1S(=O)(=O)NCCc1sccc1C)CCCC3=O` is entered as x, 1.6
# `O=C(Nc1nc(-c2ccncc2)cs1)c1ccc(-c2nc3ccccc3s2)s1` is entered as x, 0.45
# `CN(C)CCCN1C(=O)C(O)=C(C(=O)c2ccco2)C1c1ccc(Cl)cc1` (configuration not stated) is entered as -2, -0.34
# `CCCCSc1nc2c(c(=O)[nH]1)C(c1ccc(C(=O)OC)cc1)C(C(=O)OCC)=C(C)N2` (configuration not stated) is entered as 0.8, -0.17
